# Source: PubChem (Southern Research Institute)
# Mtb growth: Mycobacterium tuberculosis H37Rv growth inhibition, cell based, confirmatory dose response (AID 1949). most inactive calls were filed without a number and no value below 0 was filed. inhibition, % at 10 µg/mL; hits with a dose series show IC50 in µg/mL. hit rate 1.6% among 100,000;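 active = confirmed in a dose series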;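 note: bacteria grown 7 days with compound before Alamar blue readout; 0% = untreated bacteria and 100% = reference antibiotic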
# Starred values were filed as active, the others as inactive; i = inactive. An excerpt, so the mix of outcomes need not match the whole.
SMILES,Mtb growth
CCOc1ccc(S(=O)(=O)N(CC(=O)Nc2c(C)cccc2C)c2ccc(F)cc2)cc1,i
O=C(O)CCc1ccc(-c2ccc(Cl)cc2)n1-c1cccc(C(=O)O)c1,i
O=C(CC12CC3CC(CC(C3)C1)C2)Nc1nc(-c2cccc([N+](=O)[O-])c2)cs1,7%
CC1CC(c2ccccc2)n2ncnc2N1 (stereo not given),i
CN(CC(=O)Nc1ccc(Oc2ccccc2)cc1)S(=O)(=O)c1ccc(Cl)cc1,i
O=Cc1c(Nc2ccccc2)nc2ccccn2c1=O,6.7µg/mL*
Fc1cccc(Nc2ncnc3ccccc23)c1,i
CC(=O)NC(C)C12CC3CC(CC(CC(=O)O)(C3)C1)C2 (stereo not given),i
CNC(=S)N1N=C(c2ccccc2)CC1c1cccc([N+](=O)[O-])c1 (stereo not given),i
CC(C)CC(=O)Nc1scc(-c2ccccc2)c1C(=O)N1CCCC1,2%
COc1cc(NC(=O)c2cc(Cl)ccc2OC)cc(OC)c1,i
O=C(Nc1ccccc1-c1nc2ccccc2s1)c1sc2ccccc2c1Cl,i
O=C(COc1ccc(S(=O)(=O)N2CCCC2)cc1)NCc1ccc(Cl)cc1,i
COc1cccc(N2C(=O)CC(Sc3ccccn3)C2=O)c1 (stereo not given),i
CC(Oc1cccc(Cl)c1)C(=O)NCc1cccs1 (stereo not given),i
c1ccc(CSc2nc(-c3ccccc3)c3ccccc3n2)cc1,11%
CSc1cccc(NS(=O)(=O)c2ccc3ccccc3c2)c1,i
O=C(Nc1ccc(Nc2ccccc2)cc1)c1ccccc1Cl,i
Cc1nc2ccccc2nc1CSc1nc2ccccc2s1,i
CCC(C)c1ccccc1NC(=O)N(C)C (stereo not given),i
COCc1nc2c([nH]1)C(c1ccc(Cl)cc1)c1nc(N)oc1-2 (stereo not given),i
Cc1cc(Cl)ccc1OCC(=O)N(Cc1ccccc1)Cc1ccccc1,6%
Cc1cc(C(=O)NC(=S)Nc2cccc(C(=O)O)c2C)ccc1[N+](=O)[O-],i
CC(C)Oc1ccc(C(CC(=O)N2CCOCC2)c2ccccc2)cc1 (stereo not given),i
Cc1cc(Cl)ccc1NC(=S)N1CCN(c2ncccn2)CC1,i
# More entries.
SMILES,Mtb growth
Cc1cc(C)n2nc(NCc3cccc([N+](=O)[O-])c3)nc2n1,2%
COc1ccc(OC)c(S(=O)(=O)Nc2ccccc2)c1,i
CCc1ccc(C(=O)Nc2cc(C)on2)o1,1%
CCN(C(=O)c1sc2ccccc2c1Cl)C1CCCCC1,5%
COc1ccc(NC(=O)Oc2ccccc2)cc1Cl,i
CS(=O)(=O)N(Cc1ccc(C(=O)Nc2ccc(Cl)cc2)cc1)c1ccccc1,1%
O=c1[nH]c(CSc2nnc(-c3cccnc3)n2C2CCCCC2)nc2ccccc12,i
Cc1noc(C)c1C(=O)N1CCN(c2ncccn2)CC1,i
CCn1c(SCc2ccc(Br)cc2)nc2sc3c(c2c1=O)CCCC3,5%
CC(C)(Oc1ccc(Cl)cc1)C(=O)Nc1nccs1,29%
COc1ccccc1N(CC(O)COc1ccc(C)cc1)S(=O)(=O)c1ccccc1 (stereo not given),i
CS(=O)(=O)Nc1cccc(C(F)(F)F)c1,11%
O=C(CN1CCCCC1)C12CC3CCC(CC(C3)C1)C2,1%
CCNS(=O)(=O)c1ccc(Cl)c(OC)c1,i
O=C(Oc1ccc2ccccc2c1Cl)N1CCOCC1,i
COc1ccc(C(=O)NC(=S)Nc2ccc3oc(-c4ccc(C)c(C)c4)nc3c2)cc1[N+](=O)[O-],i
CCCCc1ccc(NC(=S)NCCc2ccc(OC)cc2)cc1,3%
C=CCNC(=O)c1ccccc1NC(=O)c1ccccc1Cl,i
Cc1nc(SCC(=O)Nc2ccc(Br)cc2)n[nH]1,i
O=C(Nc1nc(-c2ccc(S(=O)(=O)N3CCCC3)cc2)cs1)c1ccccc1Cl,i
O=C(CSc1nnc2scc(-c3ccccc3)n12)Nc1ccc(-c2nc3ccccc3s2)cc1,i
O=C(Cc1c(F)cccc1Cl)N1CCC2(CC1)OCCO2,i
CSc1nc(N)nc(SC2C=CCCC2)c1C#N (stereo not given),i
CC(=O)c1cccc(NC(=O)C(C)N2C(=O)C3C4C=CC(C5CC45)C3C2=O)c1 (stereo not given),i
COc1cc(C(=O)NC2CCCC2)c(Br)c(OC)c1OC,i

# A stretch from further up, as a working copy:
SMILES,Mtb growth
Cc1cc(Cl)ccc1NC(=S)N1CCN(c2ncccn2)CC1,i
Cc1cc(C)n2nc(NCc3cccc([N+](=O)[O-])c3)nc2n1,2%
COc1ccc(OC)c(S(=O)(=O)Nc2ccccc2)c1,i
CCc1ccc(C(=O)Nc2cc(C)on2)o1,1%
CCN(C(=O)c1sc2ccccc2c1Cl)C1CCCCC1,5%
COc1ccc(NC(=O)Oc2ccccc2)cc1Cl,i
CS(=O)(=O)N(Cc1ccc(C(=O)Nc2ccc(Cl)cc2)cc1)c1ccccc1,1%
O=c1[nH]c(CSc2nnc(-c3cccnc3)n2C2CCCCC2)nc2ccccc12,i
Cc1noc(C)c1C(=O)N1CCN(c2ncccn2)CC1,i
CCn1c(SCc2ccc(Br)cc2)nc2sc3c(c2c1=O)CCCC3,5%
CC(C)(Oc1ccc(Cl)cc1)C(=O)Nc1nccs1,29%
COc1ccccc1N(CC(O)COc1ccc(C)cc1)S(=O)(=O)c1ccccc1 (stereo not given),i
CS(=O)(=O)Nc1cccc(C(F)(F)F)c1,11%
O=C(CN1CCCCC1)C12CC3CCC(CC(C3)C1)C2,1%
CCNS(=O)(=O)c1ccc(Cl)c(OC)c1,i
O=C(Oc1ccc2ccccc2c1Cl)N1CCOCC1,i
COc1ccc(C(=O)NC(=S)Nc2ccc3oc(-c4ccc(C)c(C)c4)nc3c2)cc1[N+](=O)[O-],i
CCCCc1ccc(NC(=S)NCCc2ccc(OC)cc2)cc1,3%
C=CCNC(=O)c1ccccc1NC(=O)c1ccccc1Cl,i
Cc1nc(SCC(=O)Nc2ccc(Br)cc2)n[nH]1,i
O=C(Nc1nc(-c2ccc(S(=O)(=O)N3CCCC3)cc2)cs1)c1ccccc1Cl,i
O=C(CSc1nnc2scc(-c3ccccc3)n12)Nc1ccc(-c2nc3ccccc3s2)cc1,i
O=C(Cc1c(F)cccc1Cl)N1CCC2(CC1)OCCO2,i
CSc1nc(N)nc(SC2C=CCCC2)c1C#N (stereo not given),i

# Later entries:
SMILES,Mtb growth
O=C1CC(Cc2ccccc2)C(=O)N1c1ccc(F)cc1 (stereo not given),i
Cc1cc(Cl)ccc1NC(=S)NCCN1CCOCC1,i
O=c1c2ccccc2ncn1-c1ccc2c(c1)OCCO2,i
COc1cc(C#N)ccc1OCCc1ccccc1,i
CC(=O)OC1CCC2CC1CCC2OC(C)=O (stereo not given),16%
O=C(Nc1ccc(I)cc1)c1cc2c(ccc3ccccc32)o1,1%
CCC(NC(=O)NNC(=O)c1ccc(F)cc1)(C(F)(F)F)C(F)(F)F,i
Cc1ccc(S(=O)(=O)n2nc(-c3ccco3)nc2SCc2ccccc2)cc1,1%
COc1cccc(C(=O)COc2ccccc2Cl)c1,1%
Cc1ccccc1NCCCNc1ccccc1C,5%
CN(C)CCCN1C(=O)C(O)=C(C(=O)c2cccs2)C1c1ccc(OCC(N)=O)cc1 (stereo not given),i
O=S(=O)(Nc1ccc(Cl)cn1)c1ccc(I)cc1,i
O=C(Nc1ccccc1Cl)c1ccc(NC(=O)C2COc3ccccc3O2)cc1 (stereo not given),i
Cc1ccccc1Nc1nc(-c2ccccn2)cs1,<0.1µg/mL*
Cc1ccc(S(=O)(=O)NC(=O)NCc2cccc(Oc3ccccc3)c2)cc1,i
CCOc1c(Cl)cc(C(=O)Nc2ccc(OC)cc2OC)cc1Cl,1%
Cc1nn(Cc2ccc(C(=O)Nc3ccc(C(=O)OC(C)C)cc3)o2)c(C)c1Cl,i
Cc1nn(-c2nc3ccccc3s2)c(N)c1-c1ccc(Cl)cc1,i
COc1cc(NC(=O)c2ccccc2)c(OC)cc1NC(=O)CSCc1ccccc1,3%
CCCCNCCCCCOc1ccccc1Cl,i
Cc1sc2ncn(CC(=O)NCc3ccco3)c(=O)c2c1-c1ccc(Cl)cc1,14%
O=C(c1ccccc1SCc1ccccc1)N1CCCCCC1,i
COc1ccc(/C(N)=N/OC(=O)c2cc(Br)ccc2Cl)cc1,i
c1ccc(-n2c(SCc3nc4ccccc4s3)nnc2-c2cccs2)cc1,i
CCCNS(=O)(=O)c1ccc2ccccc2c1,i
# Additional entries.
SMILES,Mtb growth
COC(=O)c1ccc(NC(=O)CN2CCCC2)cc1,0%
COC(=O)CCC(=O)NC(=S)Nc1ccccc1F,i
COc1ccc(-c2cc(C(=O)N3CCOCC3)c3cc(Br)ccc3n2)cc1,i
O=C(c1ccco1)N1CCN(C2CCCCCC2)CC1,i
O=C(Nc1ccc(S(=O)(=O)NC23CC4CC(CC(C4)C2)C3)cc1)c1cccnc1,i
COCCNC(=O)c1ccccc1NC(=O)c1ccc(F)cc1,i
COc1ccccc1CNC(=S)Nc1ccc(C)cc1C,i
COc1cccc(C(=O)NCc2ccc(Cl)cc2Cl)c1OC,i
O=C(c1ccco1)N1CCN(S(=O)(=O)c2c(Cl)cccc2Cl)CC1,i
CCn1c(COc2cc(C)ccc2C(C)C)nnc1SCC(=O)NCc1ccccc1,2%
CCC(C)(C)NC(=O)Cc1ccc(OC)c(OC)c1,i
O=C(Nc1nccs1)c1ccc(COc2ccc(Cl)cc2)o1,i
Cc1cc(C)cc(C(=O)NC(=S)NC23CC4CC(CC(C4)C2)C3)c1,i
Cn1c(SCC(=O)Nc2ccc(Br)cc2C(F)(F)F)nnc1-c1ccncc1,i
C=CCNC(=O)CC12CC3CC(C1)CC(CC(=O)NCC=C)(C3)C2,i
CCc1ccc(C2C(C#N)=C(N)Nc3oc(COC)nc32)cc1 (stereo not given),i
CCCCSc1nnc(NC(=O)c2ccccc2Cl)s1,i
Cc1cc(C)cc(C(=O)NC(=S)Nc2ccc(N3CCCC3)cc2)c1,i
CCc1cc(=O)oc2cc(OCC(=O)Nc3c(C)cccc3C)c(Cl)cc12,i
CCS(=O)(=O)NC(C)c1ccccc1 (stereo not given),i
Cc1ccc(S(=O)(=O)N(CC(=O)NC2CCCCCC2)C2CCCCC2)cc1,1%
COc1ccccc1-c1nnc2ccc3ccccc3n12,44%
Cc1ccc(SCCC(=O)NCc2ccc(Cl)cc2)cc1,i
COCC(=O)Nc1sc2c(c1C(=O)OC)CCCC2,i
COc1cc(S(=O)(=O)NCc2ccccc2)ccc1Br,1%
# The listing continues.
SMILES,Mtb growth
CC1CCc2cc(F)ccc2N1C(=O)COc1ccc(Cl)cc1Cl (stereo not given),6%
CCN(C(=O)COc1ccc(Br)cc1C)c1ccccc1,3%
COc1ccc2cc(S(=O)(=O)NCC3CCCO3)ccc2c1 (stereo not given),i
O=C(CCSc1ccccc1)N1CCOCC1,i
C=CCc1cccc(C)c1OCCOCCNCCCC,i
Cc1c(Cl)cccc1NC(=O)CN(C1CCCCC1)S(C)(=O)=O,i
CCCN(CCC)S(=O)(=O)c1ccc(NC(=O)c2ccc(OCC)cc2)cc1,i
CCOC(=O)C1=C(Cc2ccc(CC)cc2)C(=O)c2ccccc2C1=O,18%
CCc1ccc(C(=O)NC2CCCCC2)s1,2%
O=C(Nc1ccc(I)cc1C(=O)N1CCCCCC1)c1cccc2ccccc12,i
COc1ccc(CCNC(=O)COc2c(C)ccc(C)c2C)cc1OC,i
COc1cc([N+](=O)[O-])ccc1NC(=O)C(C)Oc1ccc(Cl)cc1C (stereo not given),0%
COc1ccc([N+](=O)[O-])cc1COc1ccc2c(-c3ccccc3)cc(=O)oc2c1C,i
CS(=O)(=O)N(CC(=O)NCCc1ccccc1)c1cc(Cl)c(Cl)cc1Cl,i
Cc1ccccc1-c1nnc(SCC(=O)Nc2ccc3c(c2)OCO3)n1Cc1ccco1,i
Cc1ccc(NC(=O)COc2ccc(-c3nn(C)c(=O)c4ccccc34)cc2)c(C)c1,i
O=C1CCCN1c1ccc(S(=O)(=O)Nc2cccc(CCc3ccccn3)c2)cc1,i
O=C(COc1cccc(Br)c1)Nc1ccc(Cl)cc1Cl,i
O=C(CC1S\C(=N/N=C/C=C/c2ccccc2)NC1=O)Nc1cccc(Cl)c1Cl (stereo not given),i
CC(=O)Nc1ccc(Cl)c(C(N)=O)c1,i
CC(C)CNC(=O)c1cccc(NC(=O)c2ccc(NC(=O)c3ccco3)cc2)c1,i
COc1ccc(C(=C2C3C=CC2C2C(=O)N(Cc4ccccc4)C(=O)C32)c2ccc(OC)cc2)cc1 (stereo not given),i
COc1ccc(CCNC(=O)Nc2ccccc2Cl)cc1OC,i
Cc1cccc(C(=O)NCCc2ccccc2)c1[N+](=O)[O-],7%
CCOC(=O)Cn1c2ccccc2n2nc(C)c(=O)nc12,i
# (further entries)
SMILES,Mtb growth
N#Cc1c(NC(=O)COc2ccc(C(=O)Nc3cc(Cl)ccc3Cl)cc2)sc2c1CCC2,1%
COc1ccc(Br)cc1S(=O)(=O)N(CC(=O)N1CCOCC1)c1ccccc1,i
CCc1ccc(N(CC(=O)Nc2cc(Cl)ccc2OC)S(C)(=O)=O)cc1,7%
CN1CCN(C(=O)c2ccc(-n3nc(C(F)(F)F)c4c3CCCC4)cc2)CC1,4%
O=S(=O)(c1ccccc1)C(c1ccccc1)c1ccccc1,i
CC12CCC(C(=O)N3CCN(C(=O)C45CCC(C)(C(=O)O4)C5(C)C)CC3)(OC1=O)C2(C)C,i
COc1ccc2c(c1)c(=O)oc1cc(OCc3cc(OC)c(OC)c(OC)c3)ccc12,i
O=C(Nc1ccc2ccccc2c1)c1cc(F)c(F)cc1Cl,i
CCOc1ccc(N(C(C)C(=O)Nc2cccc(C)c2C)S(C)(=O)=O)cc1 (stereo not given),2%
COc1ccc(OC(C)C(=O)Nc2ccc(F)cc2F)cc1 (stereo not given),i
CCN(CC)c1ccc(NC(=S)NC(=O)c2cc3ccccc3o2)c(C)c1,i
COC(=O)c1c(NC(=O)c2ccc(Cl)cc2)sc(C)c1C,0%
CC(C)NS(=O)(=O)c1ccc(OCC(=O)Nc2ccc(C(F)(F)F)cc2)cc1,i
COc1cc(NC(=S)Nc2cccnc2)cc(OC)c1OC,i
Cc1ccc(-n2c(SCC(=O)Nc3ccc(Br)cc3Cl)nnc2-c2ccncc2)cc1C,i
Cc1ccc(OCCCCN(C)C)cc1C,9%
